ClpP mod – qHTS Assay for Activators of ClpP. purified B. subtilis ClpP, FRET peptide cleavage, 20 min. Potency, µM (series often up to 57.5 µM), for the others: at the highest dose activity change, negative = active. 340,000 tested, 1.9% active; active = well fitted falling curve with a large enough effect; inconclusive = small, poorly fitted or top-dose-only effect; inactive = no such curve, though single readings can be large or run the other way; further: potency means the concentration at half of the fitted maximal effect; the source files actives as falling curves though it sought activators and does not explain the sign; nearly all actives have a fitted effect of over 65% in size; many hits overshoot -100%
Target sequence (P80244 whole entry, looked up): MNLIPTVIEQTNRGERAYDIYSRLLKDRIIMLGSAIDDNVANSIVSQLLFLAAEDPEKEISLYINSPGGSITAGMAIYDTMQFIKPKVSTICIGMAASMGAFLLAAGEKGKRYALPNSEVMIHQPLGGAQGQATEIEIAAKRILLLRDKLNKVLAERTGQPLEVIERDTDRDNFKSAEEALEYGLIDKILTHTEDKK
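ClpP 10 microg/mL final, pH 8 Tris/KCl buffer with BSA, glycerol, Tween-20; compound pinned in; FRET-FV substrate; RT 20 min; Ex320/Em430; ΔFRET vs ADEP 5.8 microM, DMSO, no enzyme.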
TRPV1 PAM – HTS Assay for Compounds that Act as Potentiators of the Vanilloid Receptor 1. Transient receptor potential cation channel subfamily V member 1 (Homo sapiens), Q8NER1. TRPV1-expressing cells, Fluo-8 calcium influx, capsaicin EC20 potentiation; host cell line not named in the record; control for the full effect not named in the record. potentiation, % at 8.33 µM. 320,000 tested, 0.02% active. AID 540277, 2011; active means potentiation above 80%; inconclusive means 30% to 80%; inactive means below 30%; further: 0% is about no effect
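Cells expressing TRPV1 were dye-loaded with Fluo-8 and read kinetically: 10 s baseline, 3 min after compound (agonist portion), then 2 min after EC20 capsaicin (allosteric enhancer portion). Calcium-bound dye fluorescence at 480/520 nm.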
Sfp PPTase inh – qHTS Assay for Inhibitors of Bacillus subtilis Sfp phosphopantetheinyl transferase (PPTase). Biochemical Sfp PPTase activity, qHTS. Potency, µM, inactives show max response, negative = inhibition, actives largely listed as inhibitors. 310,000 tested, 3.5% active; active means well fitted inhibition curve with a large enough effect; inconclusive means small, poorly fitted or top-dose-only effect, or another doubt; inactive means no such curve, though single readings can be large or run the other way;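 further: the enzyme is Sfp with the accession as filed and its product quenches rhodamine fluorescence; potency means the concentration at half of the fitted maximal effect; 0% = enzyme reaction without inhibitor and -100% = no enzyme wells; top concentration of the series not given in the record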
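Reaction rates are the 30-min fluorescence difference (ex 525, em 598 nm) in wells containing 15 nM Sfp, 5 uM rhodamine-CoA and 12.5 uM BHQ-2-YbbR at pH 7.6 with 10 mM MgCl2.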
TRPML1 ag – qHTS for Agonists of the Human Mucolipin Transient Receptor Potential 1 (TRPML1); Mucolipin-1 (Homo sapiens), Q9GZU1; TRPML1-expressing cells, Ca2+ dye fluorescence, FDSS; host cell line not named in the record; reference of the full effect not given here; activation, % (no concentration beside the values); 410,000 tested, 0.12% active; AID 624414, 2012; in the data active = activation above about 50%; inconclusive = about 30% to 50%; inactive = below about 30%; further: 0% is about no effect; the text of the record puts the active cut at 80%
Target sequence (Q9GZU1 whole entry, looked up): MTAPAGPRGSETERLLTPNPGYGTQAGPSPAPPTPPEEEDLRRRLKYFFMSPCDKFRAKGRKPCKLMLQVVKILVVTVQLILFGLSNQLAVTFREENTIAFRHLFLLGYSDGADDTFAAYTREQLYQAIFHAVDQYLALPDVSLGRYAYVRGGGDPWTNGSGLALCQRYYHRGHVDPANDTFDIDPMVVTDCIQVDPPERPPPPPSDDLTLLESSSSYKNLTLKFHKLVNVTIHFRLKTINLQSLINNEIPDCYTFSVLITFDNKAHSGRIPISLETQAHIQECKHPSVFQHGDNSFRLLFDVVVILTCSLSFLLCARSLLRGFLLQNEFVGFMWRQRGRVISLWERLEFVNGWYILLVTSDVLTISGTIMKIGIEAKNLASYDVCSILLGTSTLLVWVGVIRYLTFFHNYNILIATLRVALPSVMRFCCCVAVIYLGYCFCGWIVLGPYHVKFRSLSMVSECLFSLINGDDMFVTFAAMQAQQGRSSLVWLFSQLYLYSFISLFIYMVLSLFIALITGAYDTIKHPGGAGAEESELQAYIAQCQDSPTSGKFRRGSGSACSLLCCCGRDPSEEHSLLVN
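Kinetic FDSS Ca2+ read in Tet-induced TRPML1-DL cells (ABD Ca8 dye plus quencher, 45-90 min RT loading): baseline, then compound, then 110 s agonist window; EC80 agonist 54-4 at 4uM final added afterwards for a 110 s antagonist window.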
Menin-MLL FL inh – qHTS Assay for Inhibitors Targeting the Menin-MLL Interaction in MLL Related Leukemias: Competition With Fluorescein Labeled MLL-derived Peptide | Fluorescence polarization, fluorescein-MLL peptide displacement from menin | FP activity change, % at 61.4 µM | 290,000 tested, under 10 active | AID 1766, 2009; inconclusive = falling polarisation curve, or a change in total fluorescence; inactive = total fluorescence flat and polarisation flat or rising; no compound was filed as active; the % refers to the polarisation; negative = inhibition;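 further: % of control where 0% means no effect; inhibitors lower the polarisation; unlabelled MLL peptide was the positive control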
PINK1 modulator – A Quantitative High throughput Screen to Identify Chemical Modulators of PINK1 Expression; PINK1 immunofluorescence, high-content cytometry, 24 h; AID 624263, 2012; 410,000 tested, 0.2% active; Potency, µM (titrated, usually from 76.6 µM), for inactives: top-dose activation (PINK1 increase), usual class: activators; active = well fitted activation curve with a large enough effect; inconclusive = small, poorly fitted or top-dose-only effect; inactive = flat fitted curve, though single readings scatter; cell line not stated here;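 further: potency means the concentration at half of the fitted maximal effect; % of control where 0% means no effect; nearly all actives have a fitted effect of over 65% in size; a mitochondrial uncoupler was the plate control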
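Stable cell line, 250 cells/well, 12 h attachment; compounds pinned at 5 concentrations, 24 h; CCCP control. Fixed with nuclear dye, primary antibodies 12 h at 10 degrees C, secondary plus cell stain; laser-scanning cytometer read.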
TRPML1 inh – qHTS for Inhibitors of the Human Mucolipin Transient Receptor Potential 1 (TRPML1). Mucolipin-1 (Homo sapiens), Q9GZU1. TRPML1-inducible cells, Ca2+ dye fluorescence, FDSS; stronger effect = lower value; inhibition of EC80 agonist-evoked calcium signal. activity change, negative = inhibition, % (test concentration not listed). 390,000 tested, 0.02% active. AID 624415, 2012; in the data active means activity change below about -50%; inconclusive means about -30% to -50%; inactive means above about -30%;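 further: stimulus is agonist 54-4 at its EC80 concentration; on the % scale 0 is the no-effect control and ±100 the full control effect; compound concentration not given in the record; the text of the record puts the active cut at -80%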
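Tet-induced TRPML1-DL cells loaded with Ca8 no-wash calcium dye were read kinetically on FDSS. Compound addition was followed by EC80 agonist 54-4 (4 uM final); inhibition was read over 110 s.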
* = called active by the depositor; ? = inconclusive; / = not tested or not shown; & = joins results of further samples; [ ] = another dose, or the depositor's remark. This is a random part of the collection. Share with any hit: about 4.4%.

| SMILES | TRPML1 inh | ClpP mod | TRPV1 PAM | TRPML1 ag | PINK1 modulator | Menin-MLL FL inh | Sfp PPTase inh |
| --- | --- | --- | --- | --- | --- | --- | --- |
| COc1ccc(-n2c(SCC(=O)NCc3ccco3)nc3sc4c(c3c2=O)CCN(C)C4)cc1 | 18 | -16% | -11 | -0.5 | 6.2% | 3.7 | -2% |
| O=C(CSc1nccn1Cc1ccco1)Nc1cccc(F)c1 | 12&2 | -2.4%&2.1% | 4 | 0.8&0.8 | -0.6%&-0.4% | 2.8 | 6% |
| CCN(CC)C1CCN(c2nc3nonc3nc2NCCOC)C1 (configuration not stated) | -2 | / | 10 | 0.2 | 0.2% | -5.9 | 0% |
| O=C(CCCN1C(=O)/C(=C/c2ccc(F)cc2)SC1=S)NC1CCS(=O)(=O)C1 (configuration not stated) | 10 | 1.4% | -8 | -0.4 | 2.6% | 6.5 | 0% |
| O=[N+]([O-])c1cc2ccccc2c(O)c1O | -7 | 18% | / | -0.6 | 2.1% | / | / |
| CCCNC(=O)CNC(=S)N(Cc1ccccc1F)C1CCCCC1 | 11 | / | ? | 2.4 | 0.4% | 7.6 | -4% |
| C[C@H](CO)N1C[C@H](C)[C@H](CN(C)C(=O)Nc2ccc(C(F)(F)F)cc2)Oc2ncc(Br)cc2C1=O | 1 | -1.1% | / | 2.3 | 1.9% | / | / |
| CC(C)CCN(N=O)[C@@H](Cc1ccccc1)CN(N=O)[C@@H](Cc1ccccc1)CN(C)N=O | 13 | -1.1% | -6 | 4.0 | 0.3% | -5.0 | 9% |
| CCC(CCC(=O)Nc1nncs1)C(=O)O (configuration not stated) | / | / | -4 | / | / | 1.5 | 25% |
| CC1(C(=O)N2CCN(C(=O)c3ccco3)CC2)CCN1Cc1ccccc1OC(F)F (configuration not stated) | / | -0.6% | / | -0.6 | 1.1% | / | / |
| COc1ccc(NC(=O)NNC(=O)COc2ccc3ccccc3c2)cc1OC | -2 | -4.2% | 24 | -0.2 | -0.4% | -3.1 | -16% |
| COc1ccc(SCC(O)Cn2c3ccccc3c3ccccc32)c(OC)c1 (configuration not stated) | / | -18% | / | -0.7 | 15% | / | / |
| CCCN(S(=O)(=O)c1ccccc1F)S(=O)(=O)c1ccccc1Br | 11 | / | -30 | 1.0 | 7.0% | -0.3 | 5% |
| Cc1c(Cl)cccc1NC(=O)CSc1nnc(C)n1-c1ccccc1 | 20 | -0.7% | 8 | 1.0 | 1.4%[38.3 µM] | 2.0 | 7% |
| CCN(CC)CCNCc1cc(Cl)c(OCC(=O)Nc2ccccc2)c(OC)c1 | 6 | 1.6% | 8 | 2.7 | 0.5% | -1.0 | 5% |
| CCc1nc2c(OCc3ccccc3)cccn2c1N(C)C(C)=O | / | -2.1% | / | -0.5 | 2.0% | / | / |
| CN1CCN(C2=NC(=O)/C(=C/c3cn[nH]c3-c3ccccc3)S2)CC1 | 4 | -3.6% | 6 | -0.3 | 0.3% | -5.2 | 18% |
| CN(Cc1ccco1)C(=O)Cn1nc(-c2ccc(Cl)cc2)ccc1=O | 11 | -15% | -21 | 0.2 | 2.1% | 0.1 | -10% |
| O=C(O)c1cc(S(=O)(=O)NCC2CCCO2)ccc1Cl (configuration not stated) | -6 | -3.4% | -14 | 0.2 | 2.7% | 2.9 | 17% |
| CC(=O)N1c2c(cc(Br)cc2S(=O)(=O)N2CCN(c3ccccn3)CC2)CC1C (configuration not stated) | 6 | -2.2% | 9 | 3.2 | -3.2% | 4.4 | -6% |
| O=C(CC12CC3CC(CC(Br)(C3)C1)C2)NC1CCCC1 | -15 | / | -17 | -0.4 | 2.2% | -0.1 | 2% |
| CCS(=O)(=O)N1CCN(C(=O)c2cc(OC)cc(OC)c2)CC1 | -16 | -1.3% | 1 | 0.2 | 1.2%[38.3 µM] | -0.1 | 4% |
| COc1cccc(NC(=O)CNC(=O)c2ccc([N+](=O)[O-])cc2)c1 | -1 | / | 2 | 0.9 | 0.0% | 2.8 | 2% |
| CCc1nnc(NC(=O)Cc2ccc(OCc3c(C)noc3C)cc2)s1 | 64 | 0.1% | 10 | 1.0 | 0.2% | 1.3 | 8% |
| COc1ccc(CCNc2ncnc3c2nnn3Cc2ccccc2)cc1 | 12 | -0.9% | 8 | 2.7 | 7.0% | -0.5 | 4% |
| COc1cc(Cl)c(C)cc1NC(=O)c1ccc2c(c1)OCO2 | 0 | -5.8% | -21 | 1.9 | 7.2% | -3.6 | 12% |
| NC1=NC2(CCCCCC2)n2c(nc3ccccc32)N1 | -2 | -0.7% | 13 | -0.2 | 6.2%[38.3 µM] | 1.2 | -7% |
| CCn1c(/N=C/c2ccc(OC)cc2O)nc2ccccc21 | 3 | -3.0% | 9 | 1.0 | -0.6% | 5.9 | 7% |
| C[C@H](NC(=O)C1CC(=O)N(c2ccc3c(c2)OCCO3)C1)C(=O)NC1CCCC1 (some centres not stated) | 9 | 0.3% | -1 | -0.6 | 0.2% | / | 12% |
| Cc1cccc(C)c1NC(=O)C(c1ccccc1)N1CCC2(CC1)OCCO2 (configuration not stated) | 1 | -1.3% | / | 0.1 | 1.2% | / | / |
| CCOc1ccc(C(=O)NC2CC3CCCC(C2)N3Cc2ccccc2)cc1 (configuration not stated) | 8 | 0.4% | -12 | 0.2 | 0.5% | -5.8 | 11% |
| O=C(O)c1oc2ccccc2c1CSc1ccc(Cl)cc1 | 52 | / | ? | 2.9 | 2.1% | 1.0 | 16% |
| CCOC(=O)c1cccc2c(=O)c(C(=O)c3ccc(Cl)cc3)c(C(=O)OC)[nH]c12 | -13 | -0.9% | -1 | -0.6 | -0.3% | / | 7% |
| COc1ccc(OCCC(=O)OCC(=O)NCCC2=CCCCC2)cc1 | 9 | / | -28 | 1.8 | 0.0% | 0.3 | 4% |
| Cc1ccc(CS(=O)(=O)CCC(=O)NCc2ccc(F)cc2)cc1 | 28 | 1.2% | -9 | -1.1 | 3.3% | 3.9 | 6% |
| CCC(/C=C1\Sc2ccc(OC)cc2N1CC)=C\c1sc2ccc(OC)cc2[n+]1CCCS(=O)(=O)[O-] | -16 | -1.7% | 2 | 2.0 | 19% | 11 | 50µM* |
| CCOC(=O)C(NCc1ccccc1OC)(NC(=O)CC)C(F)(F)F (configuration not stated) | -1 | 1.3% | 4 | 4.1 | -2.0% | 1.6 | -4% |
| O=C1OC(Nc2ccc(Br)cn2)c2ccccc21 (configuration not stated) | -12 | -2.3% | 3 | 1.2 | 0.2% | -0.3 | 11% |
| CC1(C)NC(=O)N(CC(O)CN(c2ccccc2)S(=O)(=O)c2ccccc2)C1=O (configuration not stated) | 0 | / | 18 | 0.1 | -1.6% | -0.2 | 8% |
| COc1ccc(CCNC(=O)COC(=O)c2ccc(Br)o2)cc1 | 65 | 0.0% | -2 | 1.2 | -0.6% | 0.2 | 23% |
| CC1CCCCC12NC(=O)N(CC(=O)OCC(=O)NC(=O)c1ccccc1)C2=O (configuration not stated) | -6 | 0.1% | 19 | 0.9 | 1.5% | / | / |
| C[C@H](CO)N1C[C@H](C)[C@@H](CN(C)S(=O)(=O)c2ccccc2)Oc2c(NS(=O)(=O)c3ccc(F)cc3)cccc2C1=O | 6 | -0.6% | / | -0.7 | 1.0% | / | / |
| Cn1nc(C(C)(C)C)cc1C(=O)N1CCCCC1c1cc(C(=O)NCc2ccc(F)cc2)no1 (configuration not stated) | / | -0.9% | / | -0.7 | 3.0% | / | / |
| Cn1c(=O)c2c(ncn2CC(=O)N2CCN(C(=O)c3ccco3)CC2)n(C)c1=O | -27 | / | 29 | -0.5 | 4.4% | 2.4 | 7% |
| O=C(NC(=S)N1CCN(C/C=C/c2ccccc2)CC1)c1c(F)cccc1F | -9 | -5.2% | 1 | -0.5 | 0.5% | 10 | 13% |
| COc1ccccc1N1CCN(C(=O)COc2cccc3ccccc23)CC1 | -9 | 0.7% | 7 | 0.8 | 2.0% | / | -9% |
| CCOCCc1nn2c(=O)cc(CSCC(=O)Nc3ccccc3)nc2s1 | 6 | 0.5% | 6 | 1.2 | 0.1% | / | 3% |
| COc1ccc(-n2c(=O)cnc3cnc(N4CCNCC4)nc32)cc1 | / | / | / | / | -0.6% | 3.1 | 19% |
| CCc1sc(C(=O)N(CCCOC)c2c(N)n(CC(C)C)c(=O)[nH]c2=O)cc1C | -15 | -8.3% | -42 | 0.4 | 3.1% | / | / |
| O=C(Nc1cc(Cl)cc(Cl)c1)N1CCCN(Cc2ccccc2)CC1 | 0 | 0.0% | -15 | 0.6 | 19% | -6.6 | 4% |
| CCC(C)[C@H](N)c1nnc(SCc2ccc(Cl)c(Cl)c2)o1 (some centres not stated) | 65 | -0.2% | / | 0.6 | 0.7% | / | / |

Ordered by heavy-atom count (low to high): part of the list above
| SMILES | TRPML1 inh | ClpP mod | TRPV1 PAM | TRPML1 ag | PINK1 modulator | Menin-MLL FL inh | Sfp PPTase inh |
| --- | --- | --- | --- | --- | --- | --- | --- |
| COc1ccc(CCNC(=O)COC(=O)c2ccc(Br)o2)cc1 | 65 | 0.0% | -2 | 1.2 | -0.6% | 0.2 | 23% |
| COc1ccc(-n2c(=O)cnc3cnc(N4CCNCC4)nc32)cc1 | / | / | / | / | -0.6% | 3.1 | 19% |
| COc1ccc(OCCC(=O)OCC(=O)NCCC2=CCCCC2)cc1 | 9 | / | -28 | 1.8 | 0.0% | 0.3 | 4% |
| CCOCCc1nn2c(=O)cc(CSCC(=O)Nc3ccccc3)nc2s1 | 6 | 0.5% | 6 | 1.2 | 0.1% | / | 3% |
| COc1ccccc1N1CCN(C(=O)COc2cccc3ccccc23)CC1 | -9 | 0.7% | 7 | 0.8 | 2.0% | / | -9% |
| CCOC(=O)c1cccc2c(=O)c(C(=O)c3ccc(Cl)cc3)c(C(=O)OC)[nH]c12 | -13 | -0.9% | -1 | -0.6 | -0.3% | / | 7% |
